hNpr1 antagonist: blocks ANP-stimulated signaling of human Npr1 receptor; HEK293 hNpr1 GloSensor cGMP, ANP-stimulated luminescence; Potency, µM (titrated, usually from 46.3 µM), inactives show at the highest dose activity change, negative = inhibition, most hits filed as inhibitors; 1.6% of 76,000 active; active = well fitted inhibition curve with a large enough effect; inconclusive = small, poorly fitted or top-dose-only effect; inactive = no such curve, though single readings can be large or run the other way;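 also: nearly all actives have a fitted effect of over 60% in size; nearly all hits also lower the signal before the agonist is added; a reference antagonist and vehicle were the controls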
Target sequence (P16066 whole entry, looked up): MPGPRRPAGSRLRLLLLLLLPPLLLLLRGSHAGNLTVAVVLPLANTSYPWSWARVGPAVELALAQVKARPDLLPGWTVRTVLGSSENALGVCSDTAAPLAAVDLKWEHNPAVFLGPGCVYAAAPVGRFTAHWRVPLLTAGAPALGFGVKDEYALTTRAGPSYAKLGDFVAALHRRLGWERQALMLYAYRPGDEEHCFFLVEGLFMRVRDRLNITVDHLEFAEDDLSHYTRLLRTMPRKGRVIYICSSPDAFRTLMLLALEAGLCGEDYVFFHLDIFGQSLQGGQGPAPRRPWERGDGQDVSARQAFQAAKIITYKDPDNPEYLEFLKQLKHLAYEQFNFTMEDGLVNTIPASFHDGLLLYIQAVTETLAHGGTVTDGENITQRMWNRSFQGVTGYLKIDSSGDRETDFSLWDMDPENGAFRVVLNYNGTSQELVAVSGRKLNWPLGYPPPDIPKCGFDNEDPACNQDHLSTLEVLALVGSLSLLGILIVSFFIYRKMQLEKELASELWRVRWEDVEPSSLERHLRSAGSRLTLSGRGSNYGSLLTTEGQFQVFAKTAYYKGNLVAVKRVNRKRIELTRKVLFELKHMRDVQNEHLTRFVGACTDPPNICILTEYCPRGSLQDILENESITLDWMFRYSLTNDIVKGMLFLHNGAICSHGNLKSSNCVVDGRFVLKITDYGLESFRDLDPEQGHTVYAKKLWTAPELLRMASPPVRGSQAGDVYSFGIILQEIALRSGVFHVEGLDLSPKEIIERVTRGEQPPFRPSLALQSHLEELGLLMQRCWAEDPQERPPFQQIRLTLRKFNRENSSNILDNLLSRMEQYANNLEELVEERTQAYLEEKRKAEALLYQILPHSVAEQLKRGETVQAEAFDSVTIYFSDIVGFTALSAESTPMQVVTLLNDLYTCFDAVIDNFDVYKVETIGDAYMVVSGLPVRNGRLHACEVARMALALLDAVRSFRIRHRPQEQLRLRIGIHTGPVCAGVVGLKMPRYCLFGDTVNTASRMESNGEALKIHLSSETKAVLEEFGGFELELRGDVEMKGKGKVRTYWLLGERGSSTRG
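Compound pre-incubated 30 min at room temperature on GloSensor-loaded HEK293 cells stably carrying hNpr1 and the pGS-40F cGMP biosensor. Stimulation uses hNppA at 0.1 nM final; luminescence is taken at baseline and 20 min post-agonist.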
Numbers without * were called inactive; u = inconclusive; [ ] = remark or other dose. % is scaled to controls: 0 for no effect and ±100 for the full control effect; potency is read from the fitted curve at half-maximal effect.

SMILES	hNpr1 antagonist
Cc1nsc(NC(=O)NC23CC4CC(C2)CC(C(C)C)(C4)C3)n1	12.6µM*
COc1cccc(CC(=O)N2CCC3(CC2)N=C(c2ccc(C)cc2)NO3)c1	-8.2%
C=CCN1CC2(CCC1=O)CCN(CC1CCCS(=O)(=O)C1)CC2 (centres undefined)	5.7%
c1ccc(N2CCC(Cn3ccnc3-c3cc4n(n3)CCCNC4)C2)cc1 (centres undefined)	-2.5%
Cc1ccc(C)c(NC(=O)N2CCC(Oc3ncccc3C(=O)N3CCOCC3)C2)c1 (centres undefined)	-0.6%
Fc1ccc(CN2CC[C@H](c3nc4ccccc4s3)C2)cc1F	-5.7%[70.6 µM]
O=C(Nc1cccc(-c2cccc(Cl)c2)c1)C1CCN(Cc2cccc(O)c2)CC1	-28.0%
O=C1[C@@H]2C[C@@H](O)CN2C2(CN(Cc3cccs3)C2)C(=O)N1Cc1cccc(Cl)c1	6.5%[70.6 µM]
COc1ccc(C(=O)NCCn2ccn3nc(-c4cc(C)ccc4C)cc3c2=O)cc1	-10.1%
c1ccc(-c2noc(-c3ccc(OC4CNC4)cc3)n2)cc1	8.91µM*
COCCCn1c(C)cc(C(=O)N2CCCC(c3[nH]ccc3C(N)=O)C2)c1C (centres undefined)	1.8%
O=C(NC1CCCC1)N1CCCN(c2nc3ncccc3o2)CC1	9.7%[70.6 µM]

Given with bars between the fields: two of the compounds above.
mol | hNpr1 antagonist
Cc1ccc(C)c(NC(=O)N2CCC(Oc3ncccc3C(=O)N3CCOCC3)C2)c1 (centres undefined) | -0.6%
Fc1ccc(CN2CC[C@H](c3nc4ccccc4s3)C2)cc1F | -5.7%[70.6 µM]

The results go on.
SMILES	hNpr1 antagonist
C[C@@H]1CN(C(=O)c2ccccc2C#N)CC[C@@]1(O)C1CCOCC1	6.1%
O=C(NCc1cc2n(n1)CCNC2)c1ccc(Cn2cnnn2)cc1	-0.6%
O=C(NC1CCN(Cc2ccccc2)CC1)C1CCc2ncc(-c3ccsc3)n2C1 (centres undefined)	-2.5%
CC(=O)c1ccc(NC(=O)O[C@@H]2CO[C@H]3[C@@H]2OC[C@@H]3NC(=O)Nc2ccc(Oc3ccccc3)cc2)cc1	u
CCC(=O)NC[C@H]1Cn2cc(-c3ccccc3)nc2CO1	5.4%[70.6 µM]
COc1cccc(CC(=O)NCC2CCCCC(=O)N2)c1 (centres undefined)	0.8%
Cc1ccsc1C(=O)NC1CCN(c2cc(-c3ccccc3)[nH]n2)C1 (centres undefined)	-9.8%
Cc1ccc(CN2C(=O)[C@@H]3C[C@@H](O)CN3C3(CN(CC(C)(C)C)C3)C2=O)o1	-0.7%[70.6 µM]
O=C(c1ccn[nH]1)N(CC1CCN(Cc2ccccc2F)CC1)CC1CCCO1 (centres undefined)	9.1%
CC1(C)[C@H]2CC[C@@H](CNC(=O)c3ccccc3)[C@@H]1C2	0.9%[70.6 µM]
COc1cccc(CN2CC[C@@H]3C(=O)NCCCCCCN(Cc4ccncc4)[C@@H]3C2)c1	-7.7%
COCCN1C(=O)c2ccccc2C(C(=O)Nc2nc(C)cs2)C12CCCCC2 (centres undefined)	-7.1%
O=C(c1cccc(C(F)(F)F)c1)N1CCC(Oc2ncccc2C(=O)N2CCCCC2)C1 (centres undefined)	-0.4%
O=C(NCCN1CCNC1=O)c1cnc2n1CCN(Cc1nccs1)CC2	-7.3%[70.6 µM]
Cc1ccc(OCc2nc(C3CN(C(=O)c4ccc(Cn5nc(C)cc5C)o4)C3)no2)cc1	-25.0%
N#CC1CCN(C(=O)c2nc(-c3ccc(Cl)cc3Cl)c3ccccn23)CC1	0.3%
O=C(Cc1ccc(F)cc1)N1CCC(c2n[nH]c(=O)n2Cc2ccc(F)cc2)CC1	-0.3%
O=C(NCc1ccco1)C1CCc2sc(C(=O)N3CCCCCC3)cc2C1 (centres undefined)	-2.3%
Cc1cc(C)n(CC(=O)N2CCCn3ccnc3C2c2ccccc2)n1 (centres undefined)	-8.7%
Cc1ccc(C)c(-c2[nH]ncc2CN2CCCC(CO)(CCc3ccccc3)C2)c1 (centres undefined)	-15.4%
O=C(CCn1nnc2ccccc21)N1CCC2(CC1)[C@H](O)C[C@@H]2OCCO	3.1%
CC(Oc1cccc(Cl)c1)C(=O)Nc1ccc2c(N3CCOCC3)ncnc2c1 (centres undefined)	-24.3%
Cc1nonc1CC(=O)N1CCCC(CNS(=O)(=O)c2cccs2)C1 (centres undefined)	0.2%
CCc1ccc(NC(=O)c2c(OC)cc(=O)n3c2CCCC3)cc1	10.0%
COc1ccc(S(=O)(=O)N2CCC3(CC2)CC(N(C)Cc2ccccc2)CCO3)cc1 (centres undefined)	11.2µM*
O=C1CCC2(CCN1)CCN(S(=O)(=O)c1ccccc1F)CC2	2.8%
COc1ccc(S(=O)(=O)N2C[C@@H]3C[C@H](C2)c2c(-c4ccc(OC(F)(F)F)cc4)ccc(=O)n2C3)cc1	0.2%
CCN(CC1CCOCC1)C(=O)Cc1cnc2c(C)cccn12	u
COc1ccc2nc(C[C@@H]3C[C@@H](C(C)C)[C@H](CNC(=O)CCCC(=O)O)C=C3C)[nH]c2c1	-2.0%
CC(C)CN[C@H]1[C@H](O)[C@H](O)C[C@@H]1c1ccc(N2CCOCC2)nc1	-1.5%[70.6 µM]
CC(NC(=O)c1coc(COc2ccc(F)cc2Cl)n1)c1cnn(C)c1 (centres undefined)	5.9%
COc1ccc(-c2cc3c(=O)n(CCNC(=O)c4c(F)cccc4Cl)ccn3n2)cc1	-23.1%
Cc1ccc(-c2nocc2CCC(=O)NCC2CCCO2)cc1 (centres undefined)	7.6%
COc1ccccc1OCCNC(=O)C1CCN(C(=O)N2CC3CC(C2)[C@H]2CCCC(=O)N2C3)CC1 (some centres undefined)	0.8%
O=C(c1ccccc1-c1ccccc1F)N(Cc1cccnc1)C1CC1	-0.5%
O=C(NCCOc1cccnc1)c1cn(Cc2cccc(C(F)(F)F)c2)nn1	-1.4%
CC(=O)N1CCC(C(=O)N2CCN(Cc3ccccc3)CC(O)C2)CC1 (centres undefined)	-1.9%
O=C(CCC1CCN(Cc2cc3ccccc3o2)CC1)NC1CCN(Cc2ccccc2)C1 (centres undefined)	-15.7%
Cc1ccc(-c2[nH]ncc2CN)cc1	-0.8%
C[C@@H](NC(=O)Nc1cccnc1)c1onc(-c2ccc(Cl)cc2)c1C(=O)O	5.1%[70.6 µM]
O=C(c1ccsc1)N1CCC2(CC1)NC(=O)N(Cc1ccc(Cl)cc1)C2=O	u
NCCCCC(=O)N1CCOc2c(O)cc(-c3csc4ccccc34)cc2C1	-29.0%
O=C(CCn1ccn2nc3c(c2c1=O)CCCC3)Nc1ccc(F)cc1Cl	-13.1%
COC(=O)c1ccc(NC(=O)N2CC(N(C3CCOCC3)S(C)(=O)=O)C2)cc1	-2.0%
CN(CCc1noc(C2CC2)n1)c1ncncc1C(=O)O	-2.3%
O=C([C@@H]1C[C@H](Oc2ccccc2)CN1C(=O)c1ccco1)N1CCCC1	0.9%
COc1ccc(CN2CCc3oc(C)c(C(=O)N4CCN(C(C)=O)CC4)c3C2)cc1	-7.6%
O=C(NCc1ccc2c(c1)OCO2)C1CC(c2ccccc2)CN(C(=O)c2ccccc2F)C1 (centres undefined)	-24.2%
COC(=O)CNC(=O)C1CN(c2cccc(OC)c2)C(=O)N1 (centres undefined)	0.0%[70.6 µM]
COc1ccc2c(C)c(C(=O)N3CC(Oc4c(C)cccc4C)C3)oc2c1	5.5%
Fc1ccc(-c2ccc3ncc(Nc4ccccn4)n3n2)cc1	-12.7%[70.6 µM]
COc1ccccc1Cc1nc(C2CC(=O)N(c3ccc(F)c(Cl)c3)C2)no1 (centres undefined)	-0.8%
CCOc1ccc(NC(=O)C2CCN(c3cnn(Cc4ccccc4)c(=O)c3)C2)cc1 (centres undefined)	u
O=C(c1ccc(Cl)cc1)N1CCC2(CC1)Cc1ccccc1NC2=O	1.8%
CCN1CC(c2ccccc2)CC2(CCN(CC(=O)N(C)CC)CC2)C1 (centres undefined)	-1.4%
CN(Cc1ccccc1)Cc1cn([C@H]2CO[C@H]3[C@@H]2OC[C@@H]3NC(=O)c2ccc(C(F)(F)F)cc2)nn1	7.2%
O=C(CN1C(=O)COc2ccc(C(=O)COc3ccccc3Cl)cc21)NCC1CCCO1 (centres undefined)	-20.1%
O=C1NC2(CCN(C(=O)C3CCCC3)CC2)COc2ccccc21	-26.4%[70.6 µM]
COC1CCOC2(CCN(C(=O)Cc3cccc(F)c3)CC2)C1 (centres undefined)	0.0%
C[C@@H]1CN(C(=O)c2cc(C(F)(F)F)[nH]n2)C[C@@]1(O)C1CCC1	-25.0%

7 entries out of the list above, sorted by the value under hNpr1 antagonist, low to high:
| Structure | hNpr1 antagonist |
| --- | --- |
| C[C@@H]1CN(C(=O)c2cc(C(F)(F)F)[nH]n2)C[C@@]1(O)C1CCC1 | -25.0% |
| O=C(CN1C(=O)COc2ccc(C(=O)COc3ccccc3Cl)cc21)NCC1CCCO1 (centres undefined) | -20.1% |
| CCN1CC(c2ccccc2)CC2(CCN(CC(=O)N(C)CC)CC2)C1 (centres undefined) | -1.4% |
| COc1ccccc1Cc1nc(C2CC(=O)N(c3ccc(F)c(Cl)c3)C2)no1 (centres undefined) | -0.8% |
| COC1CCOC2(CCN(C(=O)Cc3cccc(F)c3)CC2)C1 (centres undefined) | 0.0% |
| O=C(c1ccc(Cl)cc1)N1CCC2(CC1)Cc1ccccc1NC2=O | 1.8% |
| COc1ccc2c(C)c(C(=O)N3CC(Oc4c(C)cccc4C)C3)oc2c1 | 5.5% |

The list goes on.
SMILES	hNpr1 antagonist
CN1CCN(C(=O)CC[C@H]2CNC(=O)[C@@H]3[C@@H](CCN3Cc3ccc(C(=O)O)cc3)N2C)CC1	5.0%
O=C(NCc1ccccc1)N1CC(Oc2ccc(-c3nc(-c4ccccc4)no3)cc2)C1	u
Cc1cccn2c(CC(=O)N3CCn4nc(CO)cc4C3)cnc12	-1.9%
O=C1CCN(Cc2ccncc2)CCCC(C(=O)NC2CCN(Cc3ccccc3)CC2)CCN1 (centres undefined)	0.8%
COc1ccc(CN2CCC([C@@H]3CNC[C@H]3CO)CC2)c(OC)c1	11.9%
CCC(C)(C)C(=O)N1CCC(N2CC3CC(C2)[C@H]2CCCC(=O)N2C3)CC1 (some centres undefined)	-2.6%
CC(C)NC[C@H]1O[C@@H](CO)[C@@H](O)[C@H]1N(C)CCN(C)C	-1.3%[70.6 µM]
O=C1CCN(Cc2ccccc2)CCCC(c2nc(-c3cnccn3)no2)CCN1 (centres undefined)	-0.5%
COc1ccccc1CC(=O)N1CCCc2ncc(C(=O)NC(c3ccccc3)c3ccccc3)cc21	-14.1%
CCN1CC(c2nc(-c3ccc(-n4nc(C)cc4N)cc3)no2)CCC1=O (centres undefined)	2.3%
O=C(CC1CCCC1)N1CCOc2ccc(CN3CCCCC3)cc2C1	7.1%
COCCn1c(=O)n([C@H]2CCCN(C(=O)c3cc4ccccc4[nH]3)C2)c2ncccc21	-12.0%
N#Cc1ccc(S(=O)(=O)NCC(=O)N2CCCCCNC(=O)CC2c2ccccc2)cc1 (centres undefined)	1.5%
CN(CCc1ccccn1)[C@H]1[C@@H]2OC[C@@H](O2)[C@@H](NC(=O)Nc2ccc(F)cc2)[C@@H]1O	4.7%[70.6 µM]
CC(=O)N1CCC(C2CCN(Cc3ccc(C#N)cc3)C2)CC1 (centres undefined)	2.6%
CS(=O)(=O)c1ccc(CN2CCOC[C@H]2c2ncc(-c3cccc(Cl)c3)[nH]2)cc1	-12.5%[70.6 µM]
COCCn1ncc(N2CCC(NC(=O)Cc3ccc(F)cc3)CC2)cc1=O	1.0%
COc1ccc2c(c1)nc1n2[C@@H](CN(Cc2nccs2)Cc2nccs2)COC1	-14.7%[70.6 µM]
O=C(c1cnn2ncccc12)N1CCOCC1	2.0%[70.6 µM]
COc1ccc(N2Cc3c(NCc4cccs4)ncnc3N(C)CC2=O)cc1	-0.6%
CCn1nccc1C(=O)N1CCCN(S(C)(=O)=O)c2ccccc21	-10.2%
CN1c2cc(C(=O)Nc3ccc(OC(F)(F)F)cc3)ccc2C(=O)N2CCCCCC21 (centres undefined)	u
COc1cccc(CC(=O)N2CCCCCCNC(=O)[C@H]3C[C@H](c4nc(C(C)C)no4)C[C@H]32)c1	-14.9%
COc1cccc(CN2CCCC(NC(=O)c3cn4ccsc4n3)C2)c1 (centres undefined)	0.5%
CC(C)N1C(=O)C(CC(=O)Nc2cccc(OC(F)(F)F)c2)=C2CCCCC21 (centres undefined)	-0.4%
COc1cccc(CN(C)Cc2ccc(-c3ccccc3)cc2)c1	13.0%[70.6 µM]
COc1ccc(N2CC(c3noc(-c4cc(C)cc(C)c4)n3)CC2=O)cc1 (centres undefined)	4.8%
O=C(NCCCc1ccccn1)c1ccc2nc(-c3ccc(F)cc3)cn2c1	-13.5%
CC(C)n1cnnc1CN(C)c1nc(N)nc2nc[nH]c12	2.3%
COc1ccc(NC(=O)N[C@H]2CO[C@H]3[C@@H]2OC[C@@H]3n2nnnc2Oc2ccc(-n3cncn3)cc2)cc1	-18.5%
CC1(C)CC(Nc2nccc(-c3cnn(-c4ccccc4)c3)n2)CC(C)(C)N1	4.6%
Cc1ccc(CNC(=O)C2(c3ccc(NC(=O)C4CC4)cc3)CCCCC2)o1	-10.0%
CC(C)(C)n1cc(-c2cc(C(=O)N3C[C@H]4CC[C@H]3C4)c3ccccc3n2)cn1	-9.7%
O=C(O)c1ccc(CN2Cc3[nH]cnc3C[C@H]2c2nc(-c3ccc(F)cc3)no2)cc1	-0.8%[70.6 µM]
CC(=O)Nc1ccc(S(=O)(=O)N[C@H]2CO[C@H]3[C@@H]2OC[C@H]3OC(=O)Nc2ccc(C(C)=O)cc2)cc1	-5.9%
COCCN1CCC(N2CCN(C(=O)c3ccc(F)c(F)c3)CC2)C1=O (centres undefined)	9.8%
Cc1ccc(NC(=O)c2ccc3c(c2)N(C)C2CCCCCN2C3=O)cc1 (centres undefined)	3.3%

Bioassay records: PubChem, National Center for Advancing Translational Sciences (NCATS)

Only part of the results is shown (hit frequency here may not be typical).
